Screening data as filed in PubChem.
TRPV1 PAM = human TRPV1 potentiation; Q8NER1; TRPV1-expressing cells, Fluo-8 calcium influx, capsaicin EC20 potentiation; host cell line not named in the record; control for the full effect not named in the record; 320,000 compounds, 0.02% hits; potentiation, % at 8.33 µM; AID 540277; active means potentiation above 80%; inconclusive means 30% to 80%; inactive means below 30%; further: 0% is about no effect
Target sequence (Q8NER1 whole entry, looked up): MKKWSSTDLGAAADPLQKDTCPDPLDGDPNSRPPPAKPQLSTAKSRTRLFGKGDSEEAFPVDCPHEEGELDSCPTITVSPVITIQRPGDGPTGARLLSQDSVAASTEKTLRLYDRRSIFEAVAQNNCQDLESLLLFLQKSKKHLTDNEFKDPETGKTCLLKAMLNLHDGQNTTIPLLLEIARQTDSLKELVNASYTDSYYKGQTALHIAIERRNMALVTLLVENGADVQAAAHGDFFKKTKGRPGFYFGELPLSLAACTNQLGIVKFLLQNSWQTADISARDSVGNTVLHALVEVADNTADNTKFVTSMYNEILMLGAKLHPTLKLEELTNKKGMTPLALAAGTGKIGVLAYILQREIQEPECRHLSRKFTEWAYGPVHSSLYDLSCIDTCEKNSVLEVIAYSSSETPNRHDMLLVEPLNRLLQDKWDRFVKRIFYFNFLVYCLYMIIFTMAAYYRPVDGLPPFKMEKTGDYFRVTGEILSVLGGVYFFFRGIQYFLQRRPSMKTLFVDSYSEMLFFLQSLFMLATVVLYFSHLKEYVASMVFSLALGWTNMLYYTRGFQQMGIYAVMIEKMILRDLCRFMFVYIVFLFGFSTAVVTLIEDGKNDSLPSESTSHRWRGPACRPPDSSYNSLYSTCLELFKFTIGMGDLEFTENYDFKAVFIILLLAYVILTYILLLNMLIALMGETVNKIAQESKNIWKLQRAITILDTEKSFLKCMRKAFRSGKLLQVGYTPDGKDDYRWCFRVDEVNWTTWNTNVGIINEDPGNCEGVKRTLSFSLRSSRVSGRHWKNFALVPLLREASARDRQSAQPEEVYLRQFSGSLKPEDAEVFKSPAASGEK
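Cells expressing TRPV1 were dye-loaded with Fluo-8 and read kinetically: 10 s baseline, 3 min after compound (agonist portion), then 2 min after EC20 capsaicin (allosteric enhancer portion). Calcium-bound dye fluorescence at 480/520 nm.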
gsp antag = antagonists of gsp mutant (McCune-Albright syndrome); 340,000 compounds, 0.4% hits; Potency, µM (titrated, usually from 76.9 µM), inactives show at the top dose activity change, negative = inhibition, most hits filed as inhibitors; gsp-mutant cells, cAMP HTRF, 30 min; control for the full effect not named in the record; active = falling curve of any shape with a large fitted effect; inconclusive = falling curve, mostly with a smaller effect; inactive = flat or rising curve; cell line not stated here;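 further: intracellular cAMP measured with PDE inhibitor Ro 20-1724 present during compound exposure; potency means the concentration at half of the fitted maximal effect; on the % scale 0 is the no-effect control and ±100 the full control effect; nearly all actives have a fitted effect of over 65% in size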
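Cells, 2000/well, grown 16–24 h in DMEM 10% FBS with 0.5 mg/ml G418, then compounds plus […] (300 uM addition stock), 30 min at 37C. cAMP read by HTRF (cAMP-d2 and anti-cAMP antibody-K in lysis buffer) after 30 min RT.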
gsp ag = gsp mutant agonism. AID 624287. Potency, µM (highest dose often 76.9 µM), inactives show top-dose activation (cAMP increase), most hits filed as activators. 340,000 compounds, 0.13% hits. gsp mutant cells, cAMP HTRF, 30 min; control for the full effect not named in the record; active = well fitted activation curve with a large enough effect; inconclusive = small, poorly fitted or top-dose-only effect, or another doubt; inactive = no such curve, though single readings can be large or run the other way; cell line not stated here;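 further: phosphodiesterase inhibitor Ro 20-1724 added with compounds to block cAMP breakdown; potency means the concentration at half of the fitted maximal effect; nearly all actives have a fitted effect of over 60% in size; about a fifth of the inactives were tested at one dose only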
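Cells in DMEM/10% FBS with G418 were pretreated with compounds in DMSO plus […] (300 uM stock) for 30 min at 37C. cAMP was measured by HTRF (cAMP-d2 plus anti-cAMP antibody-K) after 30 min at room temperature.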
ClpP mod = qHTS Assay for Activators of ClpP. purified B. subtilis ClpP, FRET peptide cleavage, 20 min. ATP-dependent Clp protease proteolytic subunit (Bacillus subtilis (strain 168)), P80244. 340,000 compounds, 1.9% hits. Potency, µM (doses to about 57.5 µM), inactives show at the top dose activity change, negative = active; active = well fitted falling curve with a large enough effect; inconclusive = small, poorly fitted or top-dose-only effect; inactive = no such curve, though single readings can be large or run the other way; further: potency means the concentration at half of the fitted maximal effect; the source files actives as falling curves though it sought activators and does not explain the sign; nearly all actives have a fitted effect of over 65% in size; many hits overshoot -100%
Target sequence (P80244 whole entry, looked up): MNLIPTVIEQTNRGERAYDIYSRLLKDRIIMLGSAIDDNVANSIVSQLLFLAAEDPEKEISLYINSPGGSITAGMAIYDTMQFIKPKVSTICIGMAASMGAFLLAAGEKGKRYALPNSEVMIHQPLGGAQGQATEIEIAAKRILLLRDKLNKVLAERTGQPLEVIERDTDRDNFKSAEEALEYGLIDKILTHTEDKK
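FRET quenching reversal measured ClpP activation: 10 microg/mL B. subtilis ClpP at pH 8 with the FRET-FV decapeptide, read at 430 nm after 320 nm excitation. The 20-min minus 0-min signal was scaled between DMSO/no-enzyme wells and ADEP (5.8 microM final).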
TRPML1 inh = blocks the human TRPML1 channel. Q9GZU1. TRPML1-inducible cells, Ca2+ dye fluorescence, FDSS; active compounds read low; inhibition of EC80 agonist-evoked calcium signal. activity change, negative = inhibition, % (no concentration beside the values). 390,000 compounds, 0.02% hits. AID 624415; in the data active means activity change below about -50%; inconclusive means about -30% to -50%; inactive means above about -30%;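 further: stimulus is agonist 54-4 at its EC80 concentration; on the % scale 0 is the no-effect control and ±100 the full control effect; compound concentration not given in the record; the text of the record puts the active cut at -80%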
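TRPML1-DL cells, Tet-induced overnight (~16 h, 37 °C) at 1,500 cells/well, were loaded with Ca8 no-wash dye plus quencher for 45-90 min at room temperature. Compounds were pinned during FDSS kinetic reading; agonist 54-4 at EC80 (4 uM final) then added.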
Sfp inh = inhibitors of Bacillus subtilis Sfp phosphopantetheinyl transferase; Q9F4F7; Biochemical Sfp PPTase activity, qHTS; Potency, µM, for the others: max response, negative = inhibition, actives largely listed as inhibitors; 310,000 compounds, 3.5% hits; AID 1490; active means well fitted inhibition curve with a large enough effect; inconclusive means small, poorly fitted or top-dose-only effect, or another doubt; inactive means no such curve, though single readings can be large or run the other way;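 further: the enzyme is Sfp with the accession as filed and its product quenches rhodamine fluorescence; potency means the concentration at half of the fitted maximal effect; 0% = enzyme reaction without inhibitor and -100% = no enzyme wells; top concentration of the series not given in the record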
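Compounds were incubated with enzyme (final 15 nM) for 15 min at room temperature before substrate addition started the reaction. Fluorescence at 525 nm excitation, 598 nm emission was recorded immediately and after 30 minutes.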
Menin-MLL FL inh = menin-MLL binding inhibition, fluorescein peptide | Fluorescence polarization, fluorescein-MLL peptide displacement from menin | FP activity change, % at 61.4 µM | 290,000 tested, under 10 active; inconclusive = falling polarisation curve, or a change in total fluorescence; inactive = total fluorescence flat and polarisation flat or rising; no compound was filed as active; the % refers to the polarisation; negative = inhibition;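 further: % of control where 0% means no effect; inhibitors lower the polarisation; unlabelled MLL peptide was the positive control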
Numbers without * were called inactive; ? = inconclusive; / = not tested or not shown; & = joins results of further samples; [ ] = remark or other dose.

SMILES	Menin-MLL FL inh	TRPV1 PAM	Sfp inh	TRPML1 inh	gsp ag	gsp antag	ClpP mod
CCN(Cc1nc2ccccc2c(=O)[nH]1)C(=O)CN1C(=O)NC2(CCCCC2C)C1=O (configuration not stated)	/	-6	/	7	9%	6%	1.5%
NCCCC[C@H](N)c1nnc([C@H](CCC(=O)O)NC(=O)C2CCNCC2)o1	-3.2	0	-17%	12	-1%	8%	1.7%
O=C(c1cc2ccccc2cc1O)N1CCN(c2ccc([N+](=O)[O-])cc2)CC1	/	21	/	5	-20%	-12%	1.3%
COc1cccc(C2C(C#N)=C(N)OC3=C2C(=O)CC(c2ccco2)C3)c1OCc1ccc(F)cc1 (configuration not stated)	9.2	4	-2%	14	17%	15%	-2.9%
CC1(C)CC(=O)C=C(c2ccccc2-c2ccc(S(C)(=O)=O)cc2)C1=O	/	/	/	-9	-17%	/	1.4%
O=C(O)CCn1nnc(-c2ccccc2)n1	-4.0	2	18%	-8	10%[15.4 µM]	8%	/
CCC(=O)n1nc(-c2ccc(Cl)cc2)nc1NCc1ccccc1	3.2	?	19%	15	23%	-17%	8.9%
CCc1cccc(C)c1NC(=O)COC(=O)C1CCN(S(=O)(=O)c2ccccc2)CC1	/	20	/	-24	-8%	0%	-2.1%
CCOC(=O)c1c(NC(=O)c2cccc(N3C(=O)CCC3=O)c2)sc2c1CCN(CC)C2	/	5	10%	-7	?	-3%	-1.6%
COc1cc(CN2CCN(S(=O)(=O)c3ccc(F)cc3)CC2)cc(OC)c1OC	3.2	-7	?	-3&-14	-21%	-12%	1.3%&0.8%
O=C(Nc1ncccn1)c1cc(-c2cccc(Br)c2)nc2ccccc12	5.5	-12	-9%	-5	?	-22%	-6.5%
COc1ccc2c(c1)CCc1c(C(=O)NCCCn3ccnc3)noc1-2	1.2	-5	5%	-10	3%	13%	-7.6%
COc1ccc([N+](=O)[O-])cc1NS(=O)(=O)c1ccc(Cl)c(C(=O)Nc2sc3c(c2C#N)CCCCC3)c1	-4.2	4	21%	/	/	/	/
CCOC(=O)Nc1nc(-c2ccc(Cl)cc2Cl)cs1	3.8	0	-8%	-9	-12%	8%	-3.0%
CCOc1cc(NC(=O)c2ccco2)c(OCC)cc1NC(=O)Cc1cccc(OC)c1	3.4	8	?	14	5%	-12%	-0.7%
O=C(COC(=O)CCCc1c[nH]c2ccccc12)Nc1ccc2c(c1)OCO2	3.3	0	-21%	-12	-8%	6%	-1.0%
CN(CC(=O)Nc1ccc(Cl)cc1F)C1CCS(=O)(=O)C1 (configuration not stated)	/	10	/	-2	-1%	24%	0.1%
Cc1cccc2c1NC(=O)C2(O)N1CCCC(C)C1 (configuration not stated)	0.0	4	11%	-6	8%[15.4 µM]	4%	-2.5%
Nc1c2c(nc3ccn(Cc4ccccc4)c(=O)c13)CCC2	-1.0	2	-12%	11	-22%	2%	32µM*
CCOC(=O)c1c(C)[nH]c(C)c1C(=O)COC(=O)c1ccccc1O	0.1	-8	9%	3	-34%[inhibitor]	1%	1.0%
CC1(C)CC(=O)C2=C(C1)N(c1ccc(F)cc1)C(=O)C2(O)C(F)(F)F (configuration not stated)	3.5	24	2%	14	-38%[inhibitor]	0%	-1.4%
CCOC(=O)c1cnn(CCOC(=O)c2cccc(F)c2)c1NC(=O)c1cccc(F)c1	0.3	17	4%	-11	-7%[15.4 µM]	-4%	-26%
COCCN(CCOC)S(=O)(=O)NC[C@H]1O[C@@H](n2cnc3c(N)ncnc32)[C@H](O)[C@@H]1O	/	/	/	2	/	2%	-4.5%
O=C(NC(=S)NNC(=O)c1ccccc1O)c1cccc([N+](=O)[O-])c1	-7.9	21	14%	10	?	2%	/
COC(=O)c1ccccc1NC(=O)c1ccnn1C	1.5	-8	9%	-4	11%[15.4 µM]	1%	/
COc1cccc(CNC(=O)CCC2CCCN(Cc3ccc(OC(F)F)cc3)C2)c1 (configuration not stated)	-7.6	4	5%	5	?	9%	/
COc1ccc(-c2nnn(CC(=O)N3CCOCC3)n2)cc1	-0.2	-11	4%	-7	0%	3%	0.3%
Cc1cccc(C=Nc2ccccc2C(N)=O)c1	4.2	-2	15%	-3	-38%[inhibitor]	16%	22µM*
CC(=O)c1c(C)n(-c2cccc(Cl)c2)c2ccc(O)cc12	4.6	-23	-18%	-29	-3%	-14%	/
COc1ccc(CNC(=O)C2CC(=O)N(C3CCCC3)C2)cc1 (configuration not stated)	/	2	6%	-13	-1%	5%	1.1%
O=C(Nc1ccccc1N1CCN(C(=O)c2ccccc2)CC1)c1ccc([N+](=O)[O-])o1	0.0	-11	7%	58	15%	?	/
CC(C)CCOc1ccc(C(=O)N2CCN(c3ncccn3)CC2)cc1	-2.1	2	1%	4	?	-7%	-8.6%
C=C(C)CSc1nnc2n(C)c(=O)c3c4c(sc3n12)CCC4	1.9	0	1%	8	-16%	-6%	1.8%
CCCc1c(C(=O)N/N=C/c2ccc(OC)c(OCc3ccccc3)c2)nnn1-c1nonc1N	-6.4	22	-3%	15	-1%	-14%	?
CN(NS(=O)(=O)c1ccc(Cl)cc1)c1nc(C(F)(F)F)nc2ccccc12	2.9	1	16%	20	6%	3%	/
Cc1cc(C)c(C)c(S(=O)(=O)NCc2ccc(C(=O)N3CCCC3)cc2)c1C	0.9	-4	-2%	6	-2%[15.4 µM]	-11%	/
Nc1nc2nccc(-c3ccc(Cl)cc3)n2n1	-2.2	9	-13%	9	-34%[inhibitor]	5%	57%
N#Cc1c2c(c(-c3ccco3)[nH]c1=O)CCCC2	0.6	-11	17%	-2	10%	5%	-5.0%
C=CCSc1nnc(CC(OC)OC)n1-c1ccccc1	-0.8	2	-9%	-6	1%	3%	/
Cc1cc(C)c2c(CN3CCN(Cc4ccccc4)CC3)cc(=O)oc2c1C	-4.5	-2	-7%	-26	-3%	-15%	-1.9%
COC(=O)C/C=C/[C@@H](C)[C@@H](/C=N/OC[C@@H](C)[C@H](OCc1ccccc1)C(C)C)NS(=O)(=O)c1ccc(C)cc1	-0.4	-4	4%	/	/	/	/
COc1cc(/C=C2\SC(=O)N(CC(=O)Nc3cccc(C)c3)C2=O)cc([N+](=O)[O-])c1O	2.6	-12	1%	12	26%[15.4 µM]	?	/
CCn1c(SCc2cccc(C(=O)O)c2)nnc1-c1ccc(Cl)cc1	2.3	8	1%	-12	9%	-4%	1.1%
CCOc1ccc(-c2csc(NC(=O)CSC3=NC(=O)CN3C(C)=O)n2)c2ccccc12	4.2	2	-19%	-16	-11%[15.4 µM]	4%	-0.4%
COc1ccc(CCNC(=O)COC(=O)c2cc3ccccc3oc2=O)cc1OC	/	/	/	20	-3%	0%	-11%
O=c1[nH]c(=S)[nH]cc1Oc1ccc(Cl)cc1	/	/	/	-1	?	2%	0.6%
CCOc1cc(/C=N/NC(=O)CSc2nncn2C)ccc1OCc1cccc(C)c1	4.5	16	-16%	-2	10%	2%	?
O=C(Nc1cccc(S(=O)(=O)NC2=NCCC2)c1)c1cnc(Cl)c(Cl)c1	/	5	/	13	-2%	-21%	-0.1%
C/C(CC1(O)C(=O)N(C)c2ccccc21)=N\O (configuration not stated)	4.3	-5	3%	0	-8%	13%	0.8%
O=C(CC1NCCN(Cc2ccccc2)C1=O)Nc1ccccc1 (configuration not stated)	2.1	-3	22%	-7	5%	6%	-1.0%
O=C(NNC(=O)c1cc(OCC(F)(F)F)ccc1OCC(F)(F)F)c1cccc(C(F)(F)F)c1	6.8	2	10%	8	-12%	-6%	-3.1%
COc1ccc(N2CCN(C(=O)CSc3ccc(C)cc3)CC2)cc1	-2.7	-8	7%	-16	-5%[15.4 µM]	/	/
OCCOCCOc1ccccc1OCCOCCO	0.8	-11	16%	-3	-8%[15.4 µM]	9%	/
O=C(O)c1ccc2c(c1)C(=O)N(Cc1ccc3c(c1)OCO3)C2=O	3.4	12	2%	-5	-24%	5%	-2.7%
CC(=O)OCCOc1nc(NC(C)C)nc(NC(C)C)n1	1.2	-6	15%	-8	-7%[15.4 µM]	5%	0.5%
Cc1ccc(C)c(NC(=O)C2CCN(S(=O)(=O)c3ccc4c(c3)NC(=O)CO4)CC2)c1	/	24	8%	3	4%	-2%	1.3%
COc1ccc(NS(=O)(=O)c2cccc3cccnc23)cc1OC	-3.4	-4	4%	2	11%	-4%	/
CCCCNC(=O)OCCNC(=O)NC	1.1	11	21%	4	-12%	0%	2.7%
COc1ccc(S(=O)(=O)N(CC(=O)NC2CC2)c2ccc(C)cc2)cc1	0.0	-1	5%	8	-3%[15.4 µM]	-1%	/
O=C(NNC(=O)c1ccccc1-n1cccc1)c1ccc(Cl)cc1	6.3	/	0%	14	-54%[inhibitor]	9%	-0.8%

Remaining list, next part.
SMILES	Menin-MLL FL inh	TRPV1 PAM	Sfp inh	TRPML1 inh	gsp ag	gsp antag	ClpP mod
COC(=O)c1ccccc1NC(=O)CN(C)Cc1ccccc1	-2.4	-5	10%	-6	16%	-10%	/
CCOC(=O)c1ccc(-c2ccc(C3Nc4ccccc4C(=O)N3O)o2)cc1 (configuration not stated)	11	-4	-1%	-1	5%	?	-10.0%
N#Cc1ccccc1Cn1cc(/C=N/Nc2ccc([N+](=O)[O-])cn2)c2ccccc21	0.6	0	-7%	4	-20%[15.4 µM]	9%	/
CCOC(=O)C1CCCN(Cc2cccc(Oc3ccccc3)c2)C1 (configuration not stated)	2.1	13	-15%	13	2%[15.4 µM]	7%	0.6%
O=C(Nc1ccc(Br)cc1F)C1CCN(c2nnc(-n3cccc3)s2)CC1	0.0	3	-10%	-2	-47%[inhibitor]	-1%	1.8%
CCCc1sc(N)nc1-c1ccc(C)cc1	1.6	-7	2%	-4	7%	?	0.6%
COc1ccc(OC)c(N/C=C/C(=C(C#N)C#N)N(C)C)c1	1.4	7	6%	-13	-12%	-3%	/
Nc1ccc(C(=O)N/N=C/c2sc(N3CCOCC3)nc2-c2ccccc2)cc1	7.3	-2	8%	4	-7%[15.4 µM]	-3%	-10.0%
